VACV Venus inh: qHTS for Stage-Specific Inhibitors of Vaccinia Orthopoxvirus: Venus Reporter Primary qHTS; Vaccinia virus Venus reporter expression, fluorescence; 330,000 compounds, 0.46% hits; Potency, µM (doses to about 36.5 µM), for inactives: top-dose activity change, negative = inhibition, usual class: inhibitors; active means well fitted inhibition curve with a large enough effect; inconclusive means small, poorly fitted or top-dose-only effect; inactive means no such curve, though single readings can be large or run the other way; tested in A549 cells; note: nearly all actives have a fitted effect of over 30% in size; inactives centre near -10
VACV mCherry inh: qHTS for Stage-Specific Inhibitors of Vaccinia Orthopoxvirus: mCherry Reporter Primary qHTS | Vaccinia virus mCherry reporter infection, fluorescence; about a quarter of the inactives have no number | Potency, µM (series often up to 36.5 µM), inactives show top-dose activity change, negative = inhibition, hits mostly inhibitors | 310,000 compounds, 0.63% hits; active = well fitted inhibition curve with a large enough effect; inconclusive = small, poorly fitted or top-dose-only effect; inactive = no such curve, though single readings can be large or run the other way; tested in A549 cells; note: nearly all actives have a fitted effect of over 35% in size; inactives centre near -10
* hit, by the source's call; i = inactive; ? = inconclusive; nt = not tested or not shown; [ ] = remark or other dose. % is set by controls: 0 for no effect and ±100 for the full control effect; potency is the fitted concentration of half-maximal effect. This is a random part of the collection (roughly 0.82% active in at least one column).

SMILES	VACV Venus inh	VACV mCherry inh
COc1ccc(C(c2nnnn2Cc2ccccc2)N2CCC(n3c(=O)[nH]c4ccccc43)CC2)cc1 (stereo not drawn)	-25.1%	-28.3%
N#Cc1ccc(NC(=O)CNc2cc(S(=O)(=O)N3CCOCC3)ccc2NCC2CCCO2)cc1 (stereo not drawn)	-19.4%	-17.1%
CCc1ccccc1NC(=S)NCCSc1ccc(Cl)cc1	-9.1%	-14.2%
C=C(C)COc1ccc(-c2[nH]ncc2-c2ccccc2)c(O)c1	?	nt
NC(=O)CC(NC(=O)Cc1cccc2ccccc12)c1ccc(N2CCN(c3ccccc3)CC2)c([N+](=O)[O-])c1 (stereo not drawn)	-24.4%	?
CCCC(=O)OCC(=O)NC1CCCc2ccccc21 (stereo not drawn)	-12.0%	i
Nc1ccc(CCNc2ncnc3c2ncn3[C@@H]2O[C@H](CO)[C@@H](O)[C@H]2O)cc1	-6.9%	-12.2%
CCO[C@@H]1OC(C(=O)NC2CC2)=C[C@H](c2c[nH]c3ccccc23)[C@H]1CCCO	-4.8%	-2.3%
COc1ccccc1C(=O)NC(=O)COC(=O)CCOc1ccccc1C	-9.9%	i
CC(=O)N/C(=C\c1ccccc1)C(=O)OC(C)C(=O)N(C)c1ccccc1 (stereo not drawn)	3.2%	?
CCOc1ccc(OCC)c(NC(=O)c2cc(S(=O)(=O)N3CCCC3)cn2C)c1	-10.0%	-13.0%
O=C(CCc1ccccc1)Nc1ccc2c(c1)C(=O)OC2	-3.1%	-18.0%
N#C/C(=C\c1ccc(OCCN2CCOCC2)cc1)C(=O)Nc1ccccc1F	-5.2%	-8.8%
Cc1ccc(N(CC(=O)NCCc2ccccc2)C(=O)c2csnn2)cc1	-2.5%	-4.3%
CCOC(=O)NC(=O)c1cn(CCNCCO)c(=O)[nH]c1=O	-9.9%	-7.1%
CC(C)(C)c1nc2ccccc2c2nnc(SCC(=O)Nc3nccs3)n12	-27.0%	?
O=C(N[C@@H]1CC[C@H](CCn2cc(-c3ccccn3)nn2)O[C@@H]1CO)c1ccncc1	-11.6%	-2.7%
COc1ccc(CCN2CC(C(=O)NCc3cc(C(C)C)no3)CCC2=O)cc1 (stereo not drawn)	-7.3%	-12.8%
CCN(CC)S(=O)(=O)c1cccc(-c2nnc(SCCOc3ccccc3)o2)c1	-20.5%	-16.1%
CCO[C@H]1OC(C(=O)N2CCN(C)CC2)=C[C@@H](c2ccc3c(c2)OCO3)[C@@H]1CCCO	-11.8%	-9.1%
COc1ccc(C(=O)NCC(=O)OCC(=O)NCc2ccc3c(c2)OCO3)cc1	-8.1%	-6.6%
Cc1ccc(S(=O)(=O)NCC(=O)OCC(=O)Nc2ccccc2OC(F)F)cc1	-6.4%	-12.5%
COc1cc2nc(Cl)nc(N3CCCCC3)c2cc1OC	-23.3%	-24.2%
NC(=O)c1nsc(C(=O)N(Cc2ccco2)C(C(=O)NCC2CCCO2)c2ccc(O)cc2)c1N (stereo not drawn)	-14.1%	i
O=C1OCC(c2ccccc2)=C1c1ccc(S(=O)(=O)N2CCOCC2)s1	-9.8%	-10.8%
Cc1ccc(S(=O)(=O)Nc2ccncc2)c(C)c1N(C)S(=O)(=O)c1ccc(F)cc1	-11.8%	i
Cc1ccccc1OCC(=O)N/N=C1\CC(=O)CC(C)(C)C1	-9.8%	-10.1%
N#Cc1nc(-c2ccco2)oc1NCCCN1CCOCC1	-7.3%	-13.5%
COc1cccc(CN2C(=O)CN(C3CCCCC3)C(=O)C2c2ccc(OC)c(OC)c2)c1 (stereo not drawn)	-2.8%	-5.6%
CCC(C)c1ccc(NC(=O)C/C(C)=N/NC(=O)c2cnccn2)cc1 (stereo not drawn)	0.4%	-14.8%
Cn1nccc1C(=O)Nc1cccc(C(F)(F)F)c1	-13.3%	-7.6%
c1ccc(CCn2cccc2)nc1	-2.4%	-8.8%
O=C(NNC1=NCCN1Cc1ccccc1)c1cccc(C(F)(F)F)c1	-13.1%	-14.7%
CC1CC(C)CN(C(=O)c2nn(C)c3c2CSc2ccccc2-3)C1 (stereo not drawn)	-26.4%	i
CC1CCN(c2ccc3nnc(CCC(=O)NC(C)C)n3n2)CC1	-25.9%	-24.4%
COc1cc(/C=N/S(=O)(=O)CCc2ccccc2)ccc1O	-2.3%	-8.3%
COc1ccc(NC(=O)c2oc3ccccc3c2NC(=O)c2cc(OC)c(OC)c(OC)c2)cc1	-9.2%	-20.4%
CCN(CC)S(=O)(=O)c1ccc(C(=O)N2CCc3ccccc32)cc1	-18.3%	-13.6%
COc1ccc(CNC(=O)c2nnn(Cc3ccc(OC)cc3)c2N)cc1	2.1%	-4.3%
COc1ccc2oc(=O)c(C(=O)N3CCN(c4cc(Cl)ccc4Cl)CC3)cc2c1	-4.0%	0.5%

Structural class: those above containing a furan ring, fused or not (three)
SMILES	VACV Venus inh	VACV mCherry inh
NC(=O)c1nsc(C(=O)N(Cc2ccco2)C(C(=O)NCC2CCCO2)c2ccc(O)cc2)c1N (stereo not drawn)	-14.1%	i
N#Cc1nc(-c2ccco2)oc1NCCCN1CCOCC1	-7.3%	-13.5%
COc1ccc(NC(=O)c2oc3ccccc3c2NC(=O)c2cc(OC)c(OC)c(OC)c2)cc1	-9.2%	-20.4%

Entries listed so far with a cyano group, in the order listed:
SMILES	VACV Venus inh	VACV mCherry inh
N#Cc1ccc(NC(=O)CNc2cc(S(=O)(=O)N3CCOCC3)ccc2NCC2CCCO2)cc1 (stereo not drawn)	-19.4%	-17.1%
N#C/C(=C\c1ccc(OCCN2CCOCC2)cc1)C(=O)Nc1ccccc1F	-5.2%	-8.8%
N#Cc1nc(-c2ccco2)oc1NCCCN1CCOCC1	-7.3%	-13.5%

Carrying on:
SMILES	VACV Venus inh	VACV mCherry inh
O=c1nc2s/c(=C\c3ccco3)c(=O)n2nc1Cc1ccccc1	-10.1%	-24.5%[1.46 µM]
CCCCN(CC)C(=O)c1cc2c(=O)n3cccc(C)c3nc2s1	0.5%	-14.3%
CC(C)(C)C1CCC(=NNC(=S)Nc2cccnc2)CC1 (stereo not drawn)	-16.9%	?
CCOC(=O)Nc1ccc(C(=O)NCC2CCCO2)cc1 (stereo not drawn)	-9.7%	-4.5%
CC(=O)/C(=N\Nc1ccccc1)Sc1nncn1C	-8.4%	-16.3%
O=C(NCCC(c1ccccc1)c1ccccc1)c1ccc(Br)o1	6.3%	-6.4%
C=C(C)CCC1(C)NC(=O)N(c2ccccc2)N1 (stereo not drawn)	-0.2%	-11.1%
COc1ccc(-n2ccn(Cc3ccccc3Cl)c(=O)c2=O)cc1OC	-9.3%	-9.7%
COc1ccc(Nc2nc(=O)[nH]nc2C)cc1	-18.1%	-1.3%
Nc1nonc1-c1nc2ccccc2n1Cc1ccc(Br)cc1	-17.1%	-12.2%
C[C@]12CCC(=O)C=C1[C@H](O)C[C@@H]1[C@@H]2[C@@H](O)C[C@@]2(C)[C@H]1CC[C@]2(O)C(=O)CO	-15.6%	i
CCOc1cc(-c2noc(CCC(=O)NCCc3ccccc3)n2)ccc1OC	-20.3%	-12.8%
COCCNC(=O)c1cnc2sc(N3CCCCC3)nn2c1=O	-3.1%	2.1%
CN1C(=O)c2cccc(NC(=O)CCc3ccccc3)c2C1=O	-1.3%	-14.1%
C=CCN1CCN(C(=O)c2cc3c(s2)CCCC3)CC1	-9.7%	i
CCOC(=O)c1c(NC(=O)COc2ccc(C(C)(C)C)cc2)sc2c1CCCC2	2.8%	10.3%
CCOc1cc(/C=C2\SC(=O)N(CC(=O)Nc3ccccc3F)C2=O)cc([N+](=O)[O-])c1O	-27.2%	-10.5%
COc1ccc(Nc2oc(-c3ccccc3)nc2C#N)cc1	-17.2%	?
COc1ccc(NC(=O)CC2C(=O)N(c3ccc(C)cc3)C(=O)N2Cc2cccnc2)cc1 (stereo not drawn)	-11.2%	-4.5%
CCOC(=O)C1=C(C)OC(N)=C(C(=O)OCC)C12C(=O)Nc1ccc(Br)cc12 (stereo not drawn)	-25.4%	nt
COc1ccc(C2(NC(C)=O)CCN(C(=O)c3ccco3)CC2)cc1	-2.3%	-16.9%
CCN1C[C@@]2(COC)C3[C@@H](OC)[C@H]4[C@@H]1[C@@]3(C1C[C@H]3[C@H](OC(C)=O)C1[C@]4(OC(C)=O)C[C@H]3OC)[C@@H](OC)C[C@H]2OC(C)=O (stereo partly drawn)	-1.5%	2.4%
CC1CC2(C)Oc3ccccc3C3OCC1(CO)C(C)C32 (stereo not drawn)	-13.6%	-0.5%
Cc1cccc(-c2nnn3c2nc(NCc2ccccc2)c2ccccc23)c1	?	-23.3%
COc1cccc(N2CC(NC(=O)C(c3ccccc3)c3ccccc3)CC2=O)c1 (stereo not drawn)	-8.8%[7.34 µM]	-5.7%[7.34 µM]
O=C1CSC(=Nc2cccc(Cl)c2Cl)N1	-18.7%	i
CCCCC(CC)CNC(=O)CCCc1nnc2n(CCC)c(=O)c3sccc3n12 (stereo not drawn)	-17.6%	-16.2%
Cc1ccc2c(CNCc3cccs3)c(C(=O)O)n(Cc3ccc(F)cc3)c2c1	-15.1%	-10.1%
Cc1ccnc(NC(=O)CCN2C(=O)c3ccccc3S2(=O)=O)n1	-1.1%	-12.7%
Cc1ccc(-n2ccn(CC(=O)c3ccc(F)cc3)c(=O)c2=O)cc1C	-6.5%	-5.9%
O=C(CCS(=O)(=O)c1ccccc1)Nc1ccc(-c2nc3ccccc3s2)c(O)c1	-8.6%	-8.2%
O=C(Nc1ccc(S(=O)(=O)Nc2ncccn2)cc1)C(F)(F)F	-16.4%	-13.8%
COc1ccc(-c2cc(C(=O)NCCN3CCOCC3)c3ccccc3n2)cc1	?	?
Cc1ccnc2nc(C(=O)Nc3nnc(-c4ccccc4)o3)nn12	0.8%	1.0%
Cc1ccc(NC(=S)N2CCOCC2)c(C)c1	-6.7%	-14.5%
CNCC(O)COc1cccc(OC)c1 (stereo not drawn)	-11.1%	-0.7%
CSc1ccccc1NS(=O)(=O)c1ccccc1	-10.5%	-19.1%
O=C(N/N=C/c1cc(Br)cc([N+](=O)[O-])c1O)c1ccc(NC(=O)c2ccc(F)cc2)cc1	-6.6%	i
CN(C)c1ccc(CNC(=O)C2CCN(S(=O)(=O)c3cn(C)cn3)CC2)cc1	-4.5%	i
Cc1cc(Cl)ccc1OCC(=O)Nc1nc(-c2cccs2)cs1	-5.6%	i
CN(Cc1ccccc1)C(=O)CN(C1CCCCC1)S(C)(=O)=O	-13.8%	-23.7%
Cc1nc2sc(C(c3cccs3)N3CCOCC3)c(O)n2n1 (stereo not drawn)	5.8%	-12.3%
CCC(=O)N1CCCc2cc(S(=O)(=O)N3CCC(C(=O)Nc4ccc(C#N)cc4)CC3)ccc21	-20.1%	-18.8%
Cc1nn(C)c(C)c1S(=O)(=O)N1CCCC(C(=O)NCCc2ccc(Cl)cc2)C1 (stereo not drawn)	-11.1%	9.1%
CC(C)(C)C(=O)Nc1cc(S(=O)(=O)Nc2ccc(Cl)cc2)ccc1O	-8.8%	-3.2%
COC(=O)c1c(C(=O)OC)c(-c2ccccc2)n2c1CS(=O)(=O)C2	-8.1%	nt
O=C(NNC1CC(=O)N(c2ccc(Br)cc2)C1=O)c1ccccn1 (stereo not drawn)	-9.7%	-3.5%
COc1cccc(OC)c1C(=O)Nc1cccc(-c2ccc3nncn3n2)c1	-29.4%	?
Cc1c(NC(=O)c2cnn3c(C(F)(F)F)cc(-c4ccco4)nc23)c(=O)n(-c2ccccc2)n1C	-19.6%	nt
CSCCC(NS(=O)(=O)c1ccccc1F)C(=O)NC(C)c1ccccc1 (stereo not drawn)	-12.7%	i

Record cards, as listed above. Order of values: VACV Venus inh	VACV mCherry inh
`Cc1ccnc2nc(C(=O)Nc3nnc(-c4ccccc4)o3)nn12` reads 0.8%	1.0%
`CC1CC2(C)Oc3ccccc3C3OCC1(CO)C(C)C32` (stereo not drawn) reads -13.6%	-0.5%

The listing picks up, starting two compounds before the break.
SMILES	VACV Venus inh	VACV mCherry inh
Cc1c(NC(=O)c2cnn3c(C(F)(F)F)cc(-c4ccco4)nc23)c(=O)n(-c2ccccc2)n1C	-19.6%	nt
CSCCC(NS(=O)(=O)c1ccccc1F)C(=O)NC(C)c1ccccc1 (stereo not drawn)	-12.7%	i
CCCOC(=O)C(=O)NNc1ccccc1	-26.9%	i
CC(C)C(OC(=O)CN1C(=O)COc2ccccc21)C(=O)NC1CCCCC1 (stereo not drawn)	2.0%	3.2%
CCOc1ccc(S(=O)(=O)NCC(c2ccco2)S(=O)(=O)c2ccc(C)cc2)cc1 (stereo not drawn)	-13.9%	i
NC(=O)Cn1c(=O)n(CCCCCC(=O)NCc2ccc(F)cc2)c(=O)c2sccc21	-3.6%	-3.0%
COC(=O)c1ccc(NC(=O)c2ccccc2CC[N+](=O)[O-])cc1	-9.4%	-2.6%
Cc1ccc(S(=O)(=O)Nc2cc(C)cn(Cc3ccccc3)c2=O)cc1	-8.8%	?
Cc1c(C(=O)N(C)Cc2nc3ccccc3c(=O)[nH]2)oc2ccccc12	-27.9%	?
O=[N+]([O-])c1cccc(C(=S)N2CCCC2)c1	-13.7%	-17.1%
CCCCOc1ccc(/C=C/C(=O)OCC(=O)NC2CCS(=O)(=O)C2)cc1OCC (stereo not drawn)	-10.1%	-16.8%
Cc1ccccc1C(=O)N1CCN(c2ccc([N+](=O)[O-])c(NCc3cccnc3)c2)CC1	-16.2%	-29.4%
O=C(COc1coc(CN2CCN(c3ccccc3F)CC2)cc1=O)NC1CCCCC1	-1.0%	-11.0%
CCOc1cc(S(=O)(=O)N2CCN=C2Cc2ccccc2)ccc1F	-19.7%	-22.0%
Cc1ccc2nc(NC(=O)CSc3ncc(C(=O)Nc4ccccc4)c(=O)n3C)sc2c1	-6.1%	i
